# Mtb MbtI inh = MbtI salicylate synthase inhibition; inhibition, %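 (about 17 µg/mL by stock and volumes)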; AID 493033; purified MbtI enzyme, fluorescence intensity read-out; actives 0.89% (n = 100,000);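 active = above 50% in both replicates, above 80% if mildly self-fluorescent; inactive = the rest, strongly fluorescent compounds included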;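 note: 0% = mean of negative and 100% = mean of positive controls; one replicate is shown; some compounds called inactive have numbers as strong as hits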
# Polio RdRp inh = inhibitors of poliovirus RNA polymerase binding and polymerization. AID 588519. P03300. actives 0.66% (n = 150,000). % elongation, % (compound at 16.7 µg/mL). poliovirus polymerase elongation, fluorescence polarization; hits give low values; in the data active = % elongation below about 90%; note: some results filed as inactive read as strong as hits
# Target sequence (P03300 1749-2209 limits assumed): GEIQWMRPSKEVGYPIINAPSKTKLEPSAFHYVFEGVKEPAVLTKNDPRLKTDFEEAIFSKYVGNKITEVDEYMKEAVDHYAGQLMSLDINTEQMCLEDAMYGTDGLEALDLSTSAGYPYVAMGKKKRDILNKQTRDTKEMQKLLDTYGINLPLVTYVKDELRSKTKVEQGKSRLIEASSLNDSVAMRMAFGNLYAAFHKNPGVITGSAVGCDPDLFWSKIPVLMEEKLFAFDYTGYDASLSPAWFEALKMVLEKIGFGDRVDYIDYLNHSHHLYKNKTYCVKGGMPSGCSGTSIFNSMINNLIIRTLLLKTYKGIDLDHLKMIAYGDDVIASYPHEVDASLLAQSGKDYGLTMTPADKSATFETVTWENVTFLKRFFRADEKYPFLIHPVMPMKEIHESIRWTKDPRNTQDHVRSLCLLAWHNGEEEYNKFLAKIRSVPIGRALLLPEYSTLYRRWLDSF
# MenB inh = Mtb MenB enzyme inhibition; P9WNP5; MenB enzyme assay, absorbance read-out; some hits fall short of the stated cut; inhibition, %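 (about 12 µg/mL by stock and volumes)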; actives 0.43% (n = 100,000);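 active = mean of two replicates above 30%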;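 note: 0% = no compound and 100% = wells with inactive enzyme; the first replicate is given; strong numbers were not always called active; inactives centre near -10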
# Target sequence (P9WNP5 whole entry, looked up): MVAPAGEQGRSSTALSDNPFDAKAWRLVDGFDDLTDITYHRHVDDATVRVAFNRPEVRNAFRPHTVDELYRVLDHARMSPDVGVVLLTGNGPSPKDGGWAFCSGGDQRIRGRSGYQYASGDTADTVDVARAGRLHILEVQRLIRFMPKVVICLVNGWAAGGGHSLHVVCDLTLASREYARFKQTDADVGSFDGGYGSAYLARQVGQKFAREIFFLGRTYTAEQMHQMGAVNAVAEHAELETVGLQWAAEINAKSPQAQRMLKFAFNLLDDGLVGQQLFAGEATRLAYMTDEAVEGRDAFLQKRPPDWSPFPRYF
# Polio RdRp inh intensity = further read-out of Polio RdRp inh, marked with its call; % elongation; measured here: total intensity read-out; formula for this scale not given here;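 total fluorescence in place of polarization; lower means less elongation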
# * = called active by the depositor; i = inactive; / = not tested or not shown; & = joins results of further samples.
SMILES,Mtb MbtI inh,Polio RdRp inh,Polio RdRp inh intensity,MenB inh
COc1cc(N)c(Cl)cc1C(=O)OCC(=O)N(C)c1ccccc1,-9,104,105,-21
CC(=O)Nc1ccc(S(=O)(=O)Nc2nccc(C3Cc4ccccc4C(=O)O3)n2)cc1 (stereo not given),4,100,101,-16
COc1ccc(-n2c(SCCNCCO)nc3ccccc32)cc1,33,96,103,-15
CCc1ccccc1NC(=S)N(CCC(C)C)C(C)c1ccco1 (stereo not given),-4,103,103,-47
CC(C)Cc1cc(C(=O)NCc2ccco2)no1,0,101,102,2
O=C(CSc1ncn[nH]1)N1CCN(S(=O)(=O)c2ccccc2)CC1,-2,99,103,10
CN(C)/C=C/C(=O)c1cccc(C(F)(F)F)c1,15,100,99,-18
N#C/C(=C1/NS(=O)(=O)c2ccccc21)c1nc2ccccc2[nH]1,-6,104,112,-16
Cn1c(N)c(C(=O)COC(=O)c2cc(S(=O)(=O)N3CCOCC3)ccc2F)c(=O)n(C)c1=O,-12,104,101,1
NNC(=O)c1ccc(Oc2cccc(C(F)(F)F)c2)nc1,-5,100,107,-6
CC(=O)OC1CCC2CC1CCC2OC(C)=O (stereo not given),-16,102,104,-32
C=CCn1c(SC/C(O)=C(\C#N)c2nc3ccccc3[nH]2)nc2ccccc2c1=O,9,102,107,-12
COc1ccc(CN(C)Cc2cccc(S(=O)(=O)N(C)C)c2)c(OC)c1OC,2,101,108,8
Clc1ccc(-c2noc3ncnc(N4CCc5ccccc54)c23)cc1,3,101,102,-16
COc1ccc(-c2noc(CCCC(=O)NC(C)C)n2)cc1,8,102,104,-17

# Looked up above:
# Value of NNC(=O)c1ccc(Oc2cccc(C(F)(F)F)c2)nc1 in MenB inh: -6
# Value of COc1ccc(-n2c(SCCNCCO)nc3ccccc32)cc1 in Polio RdRp inh intensity: 103

# Carrying on:
SMILES,Mtb MbtI inh,Polio RdRp inh,Polio RdRp inh intensity,MenB inh
N#Cc1ccccc1Sc1ccccc1C(=O)Nc1cc(Cl)ccc1-n1cncn1,9,112,127,-32
CC(C)c1nnc(NC(=O)CSc2nc(-c3ccccc3)cc(=O)[nH]2)s1,12,102,101,-19
COc1cc(S(=O)(=O)n2nnc3ccccc32)c(OC)cc1C,-16,104,98,-41
O=C(c1ccco1)N1CCN=C1SCc1ccccc1,-5,101,105,-16
C=CCN1C(=O)C(O)(c2cnc(N)s2)c2ccccc21 (stereo not given),0,101,94,-17
Nc1nc(O)c(C2=c3cc(Br)ccc3=NC2=O)s1,-7,104,102,-26
N#Cc1cc(F)c(N2CCNCC2)cc1Cl,20,102,101,6
O=C(c1ccccc1)n1nc(-c2ccccc2)nc1NCc1ccco1,6,100,105,-16
O=C1c2ccccc2C(=O)N1CC1COc2ccccc2O1 (stereo not given),2,103,100,5
Oc1ccccc1-c1nnc(-c2ccccc2)c(-c2ccccc2)n1,-28,105,109,-13
O=C(CO/N=C\c1ccccc1)Nc1ccccc1C(=O)O,-61,101,101,-32
O=C(Cn1c(=O)n(Cc2nc(-c3ccccc3)no2)c(=O)c2cc3c(cc21)OCO3)Nc1ccccc1C(F)(F)F,33,103,103,3
OCn1c2ccccc2c2cc(Cl)ccc21,82,100,103,-14
CC(C)Oc1ccc(CNCCC(c2ccccc2)c2ccco2)cc1 (stereo not given),-117,101,110,-10
O=C(OC(c1ccco1)c1nccc2ccccc12)c1ccccc1 (stereo not given),88,103,109,-5
CN1CCC(NCc2ccccc2Cl)CC1,/,106,111,-3
CC(C)(C)N(Cc1ccccc1)C(=O)CCCN1C(=O)/C(=C/c2cccs2)SC1=S,10,104,99,3
COCCNC(=O)c1ccccc1NC(=O)c1ccc(F)cc1,-12,101,102,-9
CCn1c(C(=O)OC)cc2oc(C)cc21,1,102,104,-3
O=C(c1cnc2n(c1=O)CCS2)N1CCN(C(c2ccccc2)c2ccc(Cl)cc2)CC1 (stereo not given),3,99,104,-25
NC(=O)C1CCCN(S(=O)(=O)c2ccc(Cl)cc2)C1 (stereo not given),/,104,107,-8
COc1ccc(N=Cc2ccc(Cl)cc2)cc1OC,-8,102,106,/
CC(C)c1ccc(Nc2nnns2)cc1,26,99,101,-9
N=C1C(c2nc3ccccc3c(=O)[nH]2)=C(O)CN1Cc1ccccc1,22,106,103,-83
O=S(=O)(N/N=C/C1=C(N2CCOCC2)C(=C\c2ccccc2)/CC1)c1ccccc1,6,104,110,5
O=C(NC1CCCCCCC1)c1cccn2c(=O)c3cc(Br)ccc3nc12,-4,103,107,-3
NC(=O)C1CCN(C(=O)CSc2ncccn2)CC1,-3,104,104,-5
C#CCSc1nccc(-c2cc(-c3ccc(Cl)cc3)no2)n1,7,100,102,-7
CCC(CC)C(=O)N1c2ccccc2CCc2ccccc21,2,101,96,1
O=C(NCCO)c1cccc(Cl)c1,/,97,90,-5
O=C(c1csc2c1CCCC2)N1CCc2ccccc21,-15,101,104,-6
CCOC(=O)c1ccc(NC(=O)CSc2nc(NC(=O)c3ccccc3)c3c(C)c(C)oc3n2)cc1,172,97,104,-7
COc1cc(CO)cc(Cl)c1OCC(N)=O,-2,99,99,2
COc1cccc(N2C(=O)CC(Sc3nnc(C)s3)C2=O)c1 (stereo not given),100*,101,100,9
O=S(=O)(Cc1ccccc1)NNc1ccccc1,-7,101,99,-1
COc1ccc(-c2nsc(SCC(=O)c3ccc(Cl)cc3)n2)cc1,40,95,93,-7
O=C(NC1CCCCC1)c1ccc(N2CC3CC(C2)c2cccc(=O)n2C3)c(NS(=O)(=O)c2ccc(F)cc2)c1 (stereo not given),-15,100,100,4
O=C(c1ccc2c(c1)N(Cc1cccc(Cl)c1)C(=O)c1ccccc1S2=O)N1CCCCC1 (stereo not given),10,101,99,-15
COc1ccccc1-c1nnc2ccc3ccccc3n12,i,102,103,3
CC1=NN(C2(C#N)CCCCC2)C(c2ccccc2)C1 (stereo not given),-4,107,101,-22
C/C(CC(O)c1ccc2ccccc2n1)=N/O (stereo not given),10,101,102,24
CN(C)S(=O)(=O)c1ccc(C(=O)NCCN2C(=O)CSC2=O)cc1,-1,105,109,-17
CN1CCN(C2=Nc3ccccc3Oc3ccc(Cl)cc32)CC1,-2&-17,99&102,101&102,-3&1
C=CCn1c(SCc2cccc(OC)c2)nc2scc(-c3ccco3)c2c1=O,5,104,106,-20
c1ccc(CNCCCN2CCOCC2)cc1,-6,102,106,-23
Cc1cc(NC(=O)NNc2ccccc2)no1,10,105,109,-3
CC(C)(C)c1cc(-c2nc(-c3ccccc3)no2)n(Cc2ccccc2)n1,0,102,96,16
CCOC(=O)C1CCN(Cc2cc(Cl)c3ccccc3c2O)CC1,-2,102,106,-16
CCOc1ccc(S(=O)(=O)N2CCCC(C(=O)N3CCN(c4ccccc4)CC3)C2)cc1 (stereo not given),-14,101,101,-12
C=CCN1C(=O)CSC1=Nc1ccc(S(=O)(=O)Nc2nccc(C)n2)cc1,/,99,102,-30
O=C(NCc1ccco1)c1ccccc1NC(=O)C1CCCCC1,-150,107,101,-28
Cc1ccc(C2CC(c3cccs3)=NN2C(=O)CSc2ncnc3ccccc23)cc1 (stereo not given),7,104,100,1
CC(C)CCN1C(=O)C=CC1=O,42,104,108,/
CCC(=O)Nc1ccc(C(=O)CSc2nnc(CN3CCCC3)n2-c2ccccc2)cc1,9,98,99,-14
Cn1c(N)c(S(=O)(=O)N2CCc3ccccc32)c(=O)n(C)c1=O,13,100,107,3
O=C(CCSc1ccccc1)N1CCOCC1,-14,101,101,-29
CNCc1ccc(C)o1,-5,101,101,8
Cc1ccc(S(=O)(=O)N2CCC(c3c(C)n(CC(=O)N4CCCC4)c4ccccc34)CC2)cc1C,-3,100,98,-8
COC(=O)c1nn(-c2ccccc2)c(=O)c2c(N)sc(C)c12,76*,73*,77*,-13
O=C(CC1SC2=NCCN2C1=O)Nc1ccccc1 (stereo not given),-213,103,101,-3
# Next section
SMILES,Mtb MbtI inh,Polio RdRp inh,Polio RdRp inh intensity,MenB inh
CSc1ccc2c(c1)c(=O)nc1n2CCCCC1,59,102,100,/
O=C(CSc1nnc(Nc2ccccc2)s1)N1CCCC1,1,104,101,2
COCOC(=O)c1c(-c2ccccc2Cl)noc1C,3,101,107,-14
Cc1ccc(Cn2nnc3c(=O)[nH]c(C4CCCN(C(=O)c5ccco5)C4)nc32)cc1 (stereo not given),-5,100,102,6
N#CC(c1nc2ccccc2nc1N1CCOCC1)S(=O)(=O)c1ccccc1 (stereo not given),0,104,106,-11
CCCNC(=O)c1cnn2c(C)cc(C)nc12,/,101,97,-24
Cc1nc(SCCC(=O)O)c2oc3ccccc3c2n1,-1,102,108,-2
Cc1cc(C(=O)COC(=O)c2nccnc2N)c(C)n1C,89,101,105,2
O=C(COc1ccccc1F)Nc1cccnc1,-9,98,95,/
Cc1cc(C)nc(/N=C(\N)Nc2ccccc2)n1,-1,100,102,2
COc1cccn(Cc2nnc(SCC(=O)c3ccccc3)o2)c1=O,2,99,107,3
CC(C#N)Sc1ncnc2ccccc12 (stereo not given),6,/,/,-23
CCOc1cc(C(=O)OCC(=O)Nc2cccc(C)c2)ccc1OCC(=O)N1CCOCC1,14,105,102,12
O=C(CCN1C(=O)c2ccccc2C1=O)OCC(=O)c1ccc2c(c1)OCCO2,-5,/,/,-1
CCOc1ccc(N2C(=O)CC(N3CCCCC3CC)C2=O)cc1 (stereo not given),55*,103,103,9
O=C(O)c1cc2[nH]c3c(c2cc1Cl)CCCC3,/,97,107,10
O=C(CN1CCN(C(=O)C2CCCO2)CC1)Nc1cc(C(F)(F)F)ccc1Cl (stereo not given),-3,104,102,-15
COC(=O)c1onc(C(=O)c2ccccc2)c1C(=O)OC,-3,102,102,8
O=C(CCN1C(=O)c2ccccc2C1=O)Nc1ncn[nH]1,/,100,107,-2
COc1ccc(C2C3=C(CC(C)(C)CC3=O)Nc3c2c(=O)[nH]c2nc(C)nn32)cc1 (stereo not given),9,104,101,26
COc1cc(C(CC(=O)O)CC(=O)Nc2ccc(C)cc2)cc(OC)c1OC (stereo not given),-4,102,95,-23
N#Cc1ccsc1NC(=O)CCCSc1nc2ccccc2[nH]1,5,111,133,-28
COc1ccc(N2CC(C(=O)Oc3coc(CSc4ncccn4)cc3=O)CC2=O)cc1 (stereo not given),6,99,107,5
COC(=O)C1=C(C)NC(C)=C(C(=O)OC)C1C(=O)OCC(=O)c1cc(C)n(-c2nccs2)c1C,6,102,100,3
Cc1cc(/C=c2\sc3nc4ccccc4n3c2=O)c(C)n1C(C)C,-2,106,108,-5
Cc1ccc2c(CN(C)CCC#N)cc(=O)oc2c1,17,101,101,-5
COc1ccc(-c2nc3ccccc3c(=O)[nH]2)cc1,/,103,103,-2
Cc1cc2[nH]c(=O)c(=O)[nH]c2cc1S(=O)(=O)N1CCCc2ccccc21,0,101,104,-5
COc1cc(/C=C2/C(=N)N3C(=NC2=O)SN=C3S(=O)(=O)C(C)C)cc(Cl)c1OC(=O)c1ccco1,6,108,114,-5
CC(C)(C)NC(=O)Cn1c(S(=O)(=O)Cc2ccccc2)nc2ccccc21,-6,102,102,-7

# Fetched by compound from above, 7 records:
SMILES,Mtb MbtI inh,Polio RdRp inh,Polio RdRp inh intensity,MenB inh
COc1ccc(C2C3=C(CC(C)(C)CC3=O)Nc3c2c(=O)[nH]c2nc(C)nn32)cc1 (stereo not given),9,104,101,26
O=C(CN1CCN(C(=O)C2CCCO2)CC1)Nc1cc(C(F)(F)F)ccc1Cl (stereo not given),-3,104,102,-15
COc1cc(C(CC(=O)O)CC(=O)Nc2ccc(C)cc2)cc(OC)c1OC (stereo not given),-4,102,95,-23
N#Cc1ccsc1NC(=O)CCCSc1nc2ccccc2[nH]1,5,111,133,-28
O=C(CCN1C(=O)c2ccccc2C1=O)Nc1ncn[nH]1,/,100,107,-2
Cc1cc2[nH]c(=O)c(=O)[nH]c2cc1S(=O)(=O)N1CCCc2ccccc21,0,101,104,-5
COc1ccc(-c2nc3ccccc3c(=O)[nH]2)cc1,/,103,103,-2

# The results go on:
SMILES,Mtb MbtI inh,Polio RdRp inh,Polio RdRp inh intensity,MenB inh
Cn1c(C=Nc2ccc(Cl)cc2)nc2ccccc21,-19,103,104,1
Cn1nc(C(F)(F)F)cc1-c1ccc(C=C(C#N)C#N)s1,-4,102,107,-12
COc1ccc(CC(=O)Nc2ccc(-c3nnc4n3CCCCC4)cc2)cc1,-11,106,107,-11
CC(=C\C(=O)O)/C(=C/c1ccccc1)C(=O)O,1,102,102,2
N#Cc1cccc(C#N)c1Oc1ccc(S(=O)(=O)N2CCCCC2)cc1,7,102,105,10
O=C(COc1ncnc2ccccc12)NC1CCCCCC1,-4,99,99,/
O=C(CNc1ccccc1C(=O)NCc1ccco1)Nc1ccc2c(c1)OCCO2,104,103,109,0
Cc1nc2scc(C)n2c1/C=N/NC(=O)CSc1cccc2cccnc12,-17,99,106,-20
CNC(=O)COc1cccc2c1OC(C)(C)C2,7,103,105,7
Cc1ccccc1NC(=O)c1ccc2nc(C)c(C)nc2c1,-12,105,107,-31
Cc1ccccc1OC1C(=O)N(CCc2ccc(F)cc2)C1c1ccc2c(c1)OCO2 (stereo not given),-5,100,106,-3
COC(=O)c1cc(OC)c(OC)c(OC)c1-n1c(C)cc(C(N)=O)c1C,-3,106,109,-10
CCNS(=O)(=O)c1ccc(Br)c2ccccc12,-6,98,100,-11

# Assay outcomes: PubChem, ICCB-Longwood Screening Facility, Harvard Medical School
